BJeLR lethal: MLPCN primary cell-based screen for lethality selective to Ras in HRASV12 cells. BJeLR (HRASV12) viability, CellTiter-Glo ATP luminescence, 48 h; reference of the scale not given here. inhibition, % (test concentration not listed). 300,000 tested, 0.17% active. AID 1554, 2009;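 active = replicate mean above 50%; inconclusive = above 50% but judged a plate artefact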;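 also: 50 nL library stock added to about 25 µL; numbers are from one replicate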
Mtb hypoxia rep: PubChem AID 1159583 | M. tuberculosis hypoxia-regulated fluorescent reporter, fluorescence | fluorescence inhibition, % (test concentration not listed) | 300,000 tested, 0.1% active;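 active = 35 to 45% if threefold the growth effect, above 45% if 1.5-fold the growth effect; inactive = the rest, general growth blockers included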;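 also: wells of about 50 µL received 100 nL stock; 0% = vehicle wells and 100% = reference inhibitor wells; whole bacteria with a GFP reporter of the hypoxia response; strong numbers were not always called active; many hits fall short of the cut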
RN4220 kill: growth inhibition of S. aureus RN4220, primary screen, OD600 | 16 h | inhibition, % (concentration not given with the values) | 330,000 tested, 0.33% active | AID 1259311, 2017;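 active = z-score of -3 or lower and OD600 up to 0.18 on both plates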;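 also: plate controls were untreated cells for no effect and reference antibiotic for full effect; stock transfer was 100 nL into about 80 µL; one replicate is shown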
Bead autofluor: compound fluorescence in toxin protease inhibitor counterscreen | 360,000 tested, 3.1% active | fluorescence intensity (no concentration beside the values) | compound autofluorescence counterscreen, microsphere flow cytometry; hits give high values;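 active = at least 3 SD above the mean of all compounds, about 16000 in these data; inconclusive = too few beads counted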;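 also: 100 nL of 1 mM stock went into each well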
PrP UTR inh: inhibition of PrP 5' UTR reporter expression | cell-based PrP 5' UTR mRNA reporter, plate reader | inhibition, % (no concentration beside the values) | 340,000 tested, 0.35% active | AID 488862, 2010;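 active = every replicate at 50% or more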;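 also: 0 = median of the neutral control wells; tested in H4 reporter cells; numbers are from one replicate; inactives centre near -14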
ugtP null kill: growth inhibition of ugtP-null S. aureus, primary screen, RN4220 ugtP deletion, OD600 | 16 h; some inactives read as strong as hits | growth inhibition, % (no concentration beside the values) | 330,000 tested, 0.54% active;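 active = z-score under -3 and OD600 up to 0.15 on both plates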;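 also: plate controls were untreated wells for no effect and antibiotic for full effect; wells of about 80 µL received 100 nL stock; the first replicate is given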
Mtb hypoxia rep growth: further read-out of Mtb hypoxia rep, marked with its call; growth inhibition, %; measured here: M. tuberculosis growth (absorbance);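 0% = vehicle and 100% = reference antibiotic; read after six days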
An asterisk follows results filed as active; ? = inconclusive; . = not tested or not shown.

SMILES	BJeLR lethal	Mtb hypoxia rep	PrP UTR inh	Mtb hypoxia rep growth	ugtP null kill	RN4220 kill	Bead autofluor
O=C(c1ccc2nc(Cc3cccc(Cl)c3)oc2c1)N1CCC(O)CC1	-4	8	-13	-1	-3	0.3	5619
Fc1ccc(NC(=S)NCc2ccccc2)cc1	-3	5	-8	1	8	-2.3	2855
CC(=O)N1CCc2c(sc(NC(=O)CCS(=O)(=O)c3ccccc3)c2C(N)=O)C1	-2	4	-7	7	18	6.3	5728
Cc1nnc2sc(SCc3ccc(Cl)cc3)nn2c1=O	6	3	-33	7	3	3.8	9709
CCc1ccc(-n2c(O)c(C(C)=O)c(=O)[nH]c2=O)cc1 (tested in a mixture with another compound)	8	-1	-20	3	7	2.3	3736
O=C(O)c1cc(Cl)c2ccccc2c1O	1	6	-29	8	6	31	10685
CCCN(CCC)CCCNC(=O)C1CCC(CNS(=O)(=O)c2cccc3nsnc23)CC1 (stereo not drawn)	0	.	-14	.	.	.	5297
COC(=O)C1CC23C=CCN4CCC5(c6ccccc6NC15C2C)C43 (stereo not drawn)	57*	.	-2	.	.	.	4035
CC1C(=O)Nc2ccccc2N1C(=O)c1ccc(Cl)c(Cl)c1 (stereo not drawn)	7	-6	-5	-11	-15	2.3	3981
O=C(OCc1nc2ccccc2s1)C1CCN(C2=NS(=O)(=O)c3ccccc32)CC1	-16	3	-31	-2	-4	-0.7	9453
COc1ccc(CCNC(=O)COc2ncnc3ccccc23)cc1	-1	12	-28	6	2	4.0	4250
CCOC(=O)N1CCN(C(=O)CSc2nnc3[nH]c(=O)c(C)c(C)n23)CC1	-2	0	-25	4	3	4.8	5806
COc1ccc(N(CC(=O)Nc2ccccc2OC)S(=O)(=O)c2ccc(OC)c(OC)c2)cc1	-1	-5	-13	-10	12	4.8	2925
O=C(c1ccccc1F)N1CCN(S(=O)(=O)c2ccc3c(c2)OCCO3)CC1	-10	.	-7	.	-2	1.4	5913
Cc1cc(C)cc(NS(=O)(=O)c2cc(C(=O)NCc3ccccn3)ccc2Cl)c1	-1	8	-29	5	-11	1.9	10970
NC(N)=NN=Cc1ccc(Cl)c([N+](=O)[O-])c1	.	0	.	5	6	-5.5	.
NS(=O)(=O)c1cc(C(=O)OCC(=O)Nc2ccc(Cl)cc2[N+](=O)[O-])ccc1Cl	-4	7	-19	10	-6	16	1994
CCN(CC)CCOC(=O)c1ccc(NC(=O)CCCN2C(=O)/C(=C\c3cccs3)SC2=S)cc1	7	12	-14	17	-8	-0.5	7423
Cc1nnc(NC(=O)c2ccc3c(c2)NC(=O)CS3)s1	.	2	-20	0	-4	-0.1	3891
C=CC[C@@]12C=C(OC)C(=O)C(OC)=C1O[C@H](c1ccc3c(c1)OCO3)[C@H]2C	2	.	2	.	-1	4.1	5495
COc1cccc(NC(=O)CCc2nnc3ccc(NCc4ccco4)nn23)c1	-18	8	-5	3	2	-0.6	6449
CC(Oc1cc2oc(=O)c3c(c2cc1Cl)CCC3)C(=O)N1C[C@H]2C[C@@H](C1)c1cccc(=O)n1C2 (stereo partly drawn)	-6	.	-4	.	-8	1.6	5948
CCOc1ccc(OCCC(=O)OC(C)C(=O)Nc2ccc(C(C)=O)cc2)cc1 (stereo not drawn)	-10	1	3	-3	7	0.7	6090
CC(=O)Nc1ccc(S(=O)(=O)NC(C)c2nc(-c3ccccc3)no2)cc1 (stereo not drawn)	-1	-10	-7	3	7	-3.7	6778

Some of the entries above, set out differently:
smiles: CCOc1ccc(OCCC(=O)OC(C)C(=O)Nc2ccc(C(C)=O)cc2)cc1 (stereo not drawn)
  BJeLR lethal = -10
  Mtb hypoxia rep = 1
  PrP UTR inh = 3
  Mtb hypoxia rep growth = -3
  ugtP null kill = 7
  RN4220 kill = 0.7
  Bead autofluor = 6090
smiles: COc1cccc(NC(=O)CCc2nnc3ccc(NCc4ccco4)nn23)c1
  BJeLR lethal = -18
  Mtb hypoxia rep = 8
  PrP UTR inh = -5
  Mtb hypoxia rep growth = 3
  ugtP null kill = 2
  RN4220 kill = -0.6
  Bead autofluor = 6449

Additional results:
SMILES	BJeLR lethal	Mtb hypoxia rep	PrP UTR inh	Mtb hypoxia rep growth	ugtP null kill	RN4220 kill	Bead autofluor
COc1cc(OC)nc(N=CNO)n1	.	-4	.	-6	0	2.4	.
CC(C)(C)C(=O)O/N=C(\N)c1ccc([N+](=O)[O-])s1	-8	.	-29	.	.	.	4402
CC1=C(C(=O)c2ccccc2)C(c2ccc(N3CCOCC3)cc2)NC(=O)N1 (stereo not drawn)	-2	3	-13	16	0	4.7	4098
CCOc1ccccc1CN1C(=O)NC2(CCCCCC2)C1=O	-5	7	-2	5	4	3.7	6217
CC12CNCC(C)(CNC1)C2O (stereo not drawn)	12	2	-62	6	6	5.8	7659
O=C(Nc1nnc(COc2ccc(Cl)cc2)s1)c1cccs1	10	.	-12	.	-4	2.3	4508
Nc1ncnc(Sc2ncccn2)c1[N+](=O)[O-]	5	14	-61	24	-16	-0.2	4480
CC(C)OC(=O)c1ccc(COC(=O)c2cnccn2)cc1	5	11	-17	0	-1	4.8	3790
COc1ccc(N2CCN(C(=O)COC(=O)[C@@H](NC(=O)OCc3ccccc3)C(C)C)CC2)cc1	.	14	-9	7	6	0.6	3924
Cc1cc(Cl)ccc1NC(=O)CN1CCN(C(=O)c2ccco2)CC1	0	14	0	2	4	4.5	2857
CCCCOc1ccc(NC(=O)Cn2c(=O)ccc3c(C)cc(C)nc32)cc1	-9	6	-11	3	3	1.6	2429
CC(C)c1c(C(=O)N/N=C/c2cccc(OCc3ccccc3)c2)nnn1-c1nonc1N	-7	.	-14	.	.	.	4351
CCc1ccccc1NC(=O)c1cc(S(=O)(=O)N2CCc3ccccc32)cn1C	-4	13	-20	10	0	-13	5442
Cc1csc(C(C#N)=NO)n1	.	0	.	6	1	3.8	.
CN(C)C/C(Cl)=C(\Cl)c1ccccc1	15	.	-16	.	.	.	2807
O=C(Nc1ccon1)c1sc2cc(Cl)ccc2c1Cl	-7	4	-49	2	1	0.8	5417
COc1ccc(C(C(=O)Nc2ccc(C(C)C)cc2)N(C)C(=O)c2ccc(=O)[nH]c2)cc1 (stereo not drawn)	6	-13	-12	-6	-1	2.5	4839
FC(F)(F)c1nc(Oc2ccccc2)c2ccccc2n1	1	.	20	.	26	1.2	2414
CC(=NN1CCN(c2ccc(Cl)cc2)CC1)c1cccc([N+](=O)[O-])c1	.	14	.	6	-2	3.9	.
CCn1c(SCC(=O)Nc2ccc3c(c2)OCO3)nnc1-c1ccccc1O	-3	-5	-14	16	1	-1.4	5710
CCc1ccc(Nc2n[n+](C)c(-c3ccncc3)s2)cc1	-1	.	-5	.	.	.	3990
O=c1c2ccccc2nc(-c2ccco2)n1-c1ccc(Br)cn1	-5	9	-11	8	12	3.3	4287
CC(C)c1ccc(Nc2nnc(SCC(=O)NCC3CCCO3)s2)cc1 (stereo not drawn)	.	10	-28	10	4	0.4	3652
CCCCNC(=O)CN(c1cc(C(F)(F)F)ccc1Cl)S(C)(=O)=O	4	15	-16	-2	4	3.9	2521
CCN(CC)c1ccc(/C=C2\CCC(C=NNC(=O)c3ccc(=O)n(C)c3)=C2N2CCOCC2)cc1	.	10	.	12	14	1.0	.
C/C(=N\NC(=O)CC(C)C)c1c(C(F)(F)F)[nH]n(-c2nc3ccccc3s2)c1=O	19	.	-19	.	.	.	3487
COc1ccc(C=CC2=CCN(Cc3ccc(OC)cc3)CC2)cc1	.	2	.	4	2	1.7	.
O=C(C[n+]1ccc(C=NO)cc1)NCc1ccccc1	.	-10	.	-3	-5	-1.1	.
COc1cc(C(=O)OCC(=O)NC(=O)C2CCCCC2)ccc1OC(F)F	0	0	-5	4	7	4.7	4437
CCCn1nc(C(=O)Nc2ccc(N3CCOCC3)cc2)c2ccccc2c1=O	.	24	-11	7	-3	1.7	3820
Cc1c(NC(=O)NC(C)N2C(=O)C3C4C=CC(C4)C3C2=O)c(=O)n(-c2ccccc2)n1C (stereo not drawn)	-2	11	-8	7	8	5.4	?
Oc1cccc(/C=N/NP(=S)(c2ccccc2)c2ccccc2)c1	-4	.	-20	.	.	.	?
CCOc1ccc(N=Nc2c(=O)[nH]n3c(C)cc(C)nc23)cc1	-3	15	-11	-9	0	5.1	1985
O=C(Nc1ncc(Cc2ccccc2Cl)s1)C1=NCCN1	-9	4	6	2	-3	3.8	2559
O=[N+]([O-])c1ccc(CN2C=NS(=O)(=O)c3ccccc32)cc1	8	6	-20	9	13	3.5	4729
CCOC(=O)c1c(S(=O)(=O)NCc2ccco2)c(C)n(C)c1C	3	7	-26	4	0	1.0	6219
CC1C(=O)N2CCCc3cc(NC(=O)C(=O)NCc4ccccn4)cc1c32 (stereo not drawn)	1	6	-20	-3	-1	-0.1	.
CCN(CC)S(=O)(=O)c1cc(NC(=O)C(C)N(C)CC(=O)Nc2c(C)cccc2C)ccc1C (stereo not drawn)	8	10	2	1	0	1.1	2540
Cc1cccc2sc(NC(=O)CSc3nnnn3C)nc12	-5	3	-7	2	-4	0.4	5546
CCCCOc1ccc(-c2nc(C=Nc3nccs3)c(O)o2)cc1	.	-2	.	-2	-1	1.5	.
CCSc1n[nH]c2nc3c(c(=O)n12)C1(CCCCC1)Cc1ccccc1-3	4	13	-4	7	17	11	4637
Fc1ccc2c(-c3cccc(C(F)(F)F)c3)c(-c3ccccc3)ncc2c1	.	8	-2	5	14	0.9	3908
CCn1c(=O)c(C(=O)CN2CCc3ccccc32)c(N)n(Cc2ccccc2)c1=O	-10	11	-15	5	2	5.2	2934
CCC(=O)Nc1cccc(-n2nnnc2SCC(=O)NCc2ccco2)c1	4	25	-20	-16	3	-16	3242
CCN1C(=O)[C@H]2[C@@H](c3ccc(C)cc3)N3C(=O)N(c4ccc(C(F)(F)F)cc4)C(=O)[C@@]3(CC(C)C)[C@H]2C1=O	3	.	-19	.	.	.	3026
Cc1cc(C(=O)NC2=NCCS2)cs1	2	6	-68	0	6	0.7	22079*
COc1ccc(CN2CCn3ncc(C(=O)Nc4ccc(Cl)cc4Cl)c3C2=O)cc1	0	.	9	.	13	4.4	2066
Nc1cc(C(=O)O)c(Oc2ccc(Cl)cc2Cl)cc1C(=O)O	-1	3	-21	3	5	3.1	2398

Copied from the list.
Bead autofluor with `CCn1c(=O)c(C(=O)CN2CCc3ccccc32)c(N)n(Cc2ccccc2)c1=O` reads 2934
RN4220 kill with `Fc1ccc2c(-c3cccc(C(F)(F)F)c3)c(-c3ccccc3)ncc2c1` reads 0.9

More results follow.
SMILES	BJeLR lethal	Mtb hypoxia rep	PrP UTR inh	Mtb hypoxia rep growth	ugtP null kill	RN4220 kill	Bead autofluor
CCCCn1c(O)c(C(CC)=Nc2ccc3c(c2)CCC3)c(=O)[nH]c1=O	0	7	3	2	-11	-4.4	16607*
CCOC(=O)c1c(-c2ccc(C)o2)csc1NC(=O)CSc1nncs1	-9	6	-33	13	1	6.5	12043
CCOc1ccccc1Nc1nnc(SCC(=O)NCC2CCCO2)s1 (stereo not drawn)	.	9	-22	14	3	3.5	3608
COc1ccc(C(C)=NOC/C(O)=C(\C#N)c2nc3ccccc3[nH]2)cc1	.	0	.	-3	2	7.0	.
O=C(O)CC1(CC(=O)Nc2cc3ccccc3cn2)CCCCC1	-11	8	.	4	0	7.2	3947
COc1ccc(C=NNC(=O)c2cccnc2)cc1COc1ccc(NC(C)=O)cc1	.	2	.	4	8	0.8	.
Nc1cnnc(NN=Cc2ccccc2)c1Cl	.	8	.	5	9	3.3	.
CCN(CC)S(=O)(=O)c1cccc(-c2n[nH]c(=S)n2/N=C/c2ccc(Br)cc2)c1	-7	.	-31	.	.	.	2525
O=C(NC1CCCCCC1)c1cc(S(=O)(=O)N2CCCCC2)ccc1N1CCOCC1	-3	-2	-41	2	-3	1.3	4479
COc1ccc(C(=O)O)cc1S(=O)(=O)N1CCN(c2ccccn2)CC1	0	-1	3	1	1	0.0	4508
CC(=O)c1cccc(NC(=O)C(C)OC(=O)Cc2n[nH]c(=O)c3ccccc23)c1 (stereo not drawn)	0	0	-1	-6	-1	-1.7	5727
CC1CCOC2(O1)C(=O)Nc1ccccc12 (stereo not drawn)	0	19	-42	14	4	8.2	4324
Cc1cc(OCCCC(=O)NCc2cccs2)ccc1Cl	-10	.	-25	.	.	.	2204
COc1ccc(N=C2SC(CC(=O)Nc3ccccc3)C(=O)N2CC2CCCO2)cc1 (stereo not drawn)	2	13	-14	4	-2	0.5	2962
N#C/C(=C\c1cn(CCOc2ccccc2)c2ccccc12)C(=O)NCc1ccco1	-2	4	-17	11	-5	2.1	6136
